TRPML1 blocker: human mucolipin-1 channel inhibition. Q9GZU1. TRPML1-inducible cells, Ca2+ dye fluorescence, FDSS; stronger effect = lower value; inhibition of EC80 agonist-evoked calcium signal. activity change, negative = inhibition, % (concentration not given with the values). actives 0.02% (n = 390,000); in the data active means activity change below about -50%; inconclusive means about -30% to -50%; inactive means above about -30%;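 note: stimulus is agonist 54-4 at its EC80 concentration; % is set by controls: 0 for no effect and ±100 for the full control effect; compound concentration not given in the record; the text of the record puts the active cut at -80%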
Target sequence (Q9GZU1 whole entry, looked up): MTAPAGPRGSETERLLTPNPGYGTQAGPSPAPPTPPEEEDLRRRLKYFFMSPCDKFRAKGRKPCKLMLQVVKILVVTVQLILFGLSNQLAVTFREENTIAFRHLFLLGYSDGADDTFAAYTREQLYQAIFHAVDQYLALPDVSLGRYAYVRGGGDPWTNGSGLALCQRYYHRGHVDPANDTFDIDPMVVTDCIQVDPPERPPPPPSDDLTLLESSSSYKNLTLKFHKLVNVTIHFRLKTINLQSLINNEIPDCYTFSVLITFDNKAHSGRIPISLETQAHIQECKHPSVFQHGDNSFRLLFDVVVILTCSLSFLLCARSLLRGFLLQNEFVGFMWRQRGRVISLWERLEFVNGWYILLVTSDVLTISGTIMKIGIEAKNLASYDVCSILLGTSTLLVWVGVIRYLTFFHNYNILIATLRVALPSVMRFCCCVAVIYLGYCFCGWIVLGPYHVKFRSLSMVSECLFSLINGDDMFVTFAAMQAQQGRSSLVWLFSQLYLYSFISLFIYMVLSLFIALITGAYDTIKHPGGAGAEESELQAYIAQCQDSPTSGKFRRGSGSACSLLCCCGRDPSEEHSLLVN
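TRPML1-DL cells, Tet-induced overnight (~16 h, 37 °C) at 1,500 cells/well, were loaded with Ca8 no-wash dye plus quencher for 45-90 min at room temperature. Compounds were pinned during FDSS kinetic reading; agonist 54-4 at EC80 (4 uM final) then added.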
gsp antag: gsp mutant antagonism. gsp-mutant cells, cAMP HTRF, 30 min; control for the full effect not named in the record. actives 0.4% (n = 340,000). Potency, µM (titrated, usually from 76.9 µM), without a hit: top-dose activity change, negative = inhibition, usual class: inhibitors; active = falling curve of any shape with a large fitted effect; inconclusive = falling curve, mostly with a smaller effect; inactive = flat or rising curve; cell line not stated here;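 note: intracellular cAMP measured with PDE inhibitor Ro 20-1724 present during compound exposure; potency is the fitted concentration of half-maximal effect; % is set by controls: 0 for no effect and ±100 for the full control effect; nearly all actives have a fitted effect of over 65% in size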
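HTRF cAMP measurement after 30 min RT detection following 30 min, 37C compound treatment alongside […] (added as 300 uM solution) in G418-selected cells seeded at 2000/well and grown 16–24 h.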
Menin MLL FP FL: inhibitors of human menin-MLL interaction, wild-type MLL peptide; Fluorescence polarization, fluorescein-MLL peptide displacement from menin; FP activity change, % at 61.4 µM; 290,000 tested, under 10 active; AID 1766; inconclusive = falling polarisation curve, or a change in total fluorescence; inactive = total fluorescence flat and polarisation flat or rising; no compound was filed as active; the % refers to the polarisation; negative = inhibition;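 note: % of control where 0% means no effect; inhibitors lower the polarisation; unlabelled MLL peptide was the positive control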
gsp ag: gsp mutant agonism | gsp mutant cells, cAMP HTRF, 30 min; control for the full effect not named in the record | Potency, µM (doses to about 76.9 µM), for inactives: at the top dose activation (cAMP increase), most hits filed as activators | AID 624287 | actives 0.13% (n = 340,000); active = well fitted activation curve with a large enough effect; inconclusive = small, poorly fitted or top-dose-only effect, or another doubt; inactive = no such curve, though single readings can be large or run the other way; cell line not stated here;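 note: phosphodiesterase inhibitor Ro 20-1724 added with compounds to block cAMP breakdown; potency is the fitted concentration of half-maximal effect; nearly all actives have a fitted effect of over 60% in size; about a fifth of the inactives were tested at one dose only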
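Cells stably selected in G418 were plated at 2000/well, grown 16-24 hr, then given compounds in DMSO with the PDE inhibitor […] (300 uM solution added) for 30 min at 37C; cAMP was read by HTRF.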
TRPML1 agonist: activates the human TRPML1 channel | activation, % (test concentration not listed) | Q9GZU1 | TRPML1-expressing cells, Ca2+ dye fluorescence, FDSS; host cell line not named in the record; reference of the full effect not given here | AID 624414 | actives 0.12% (n = 410,000); in the data active = activation above about 50%; inconclusive = about 30% to 50%; inactive = below about 30%; note: 0% is about no effect; the text of the record puts the active cut at 80%
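Tet-induced TRPML1-DL cells, 1,500 per well, cultured overnight, were loaded with a no-wash Ca2+ dye for 45–90 min. Calcium fluorescence was recorded on the FDSS for 110 s after compound addition, before the EC80 agonist (4 uM 54-4) was added.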
ClpP mod: qHTS Assay for Activators of ClpP; Potency, µM (highest dose often 57.5 µM), for inactives: at the top dose activity change, negative = active; purified B. subtilis ClpP, FRET peptide cleavage, 20 min; actives 1.9% (n = 340,000); ATP-dependent Clp protease proteolytic subunit (Bacillus subtilis (strain 168)), P80244; AID 651965, 2013; active = well fitted falling curve with a large enough effect; inconclusive = small, poorly fitted or top-dose-only effect; inactive = no such curve, though single readings can be large or run the other way; note: potency is the fitted concentration of half-maximal effect; the source files actives as falling curves though it sought activators and does not explain the sign; nearly all actives have a fitted effect of over 65% in size; many hits overshoot -100%
Target sequence (P80244 whole entry, looked up): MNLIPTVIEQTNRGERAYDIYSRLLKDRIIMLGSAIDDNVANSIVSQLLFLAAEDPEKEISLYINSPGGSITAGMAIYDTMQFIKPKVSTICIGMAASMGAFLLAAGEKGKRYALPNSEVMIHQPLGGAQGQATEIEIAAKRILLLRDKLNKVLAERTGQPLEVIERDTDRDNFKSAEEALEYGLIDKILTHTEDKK
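Buffer: 100 mM Tris/HCl pH8, 100 mM KCl, 0.05% low protease BSA, 2.5% glycerol, 0.01% Tween-20. ClpP 10 microg/mL final; 20 min RT; delta FRET normalized to ADEP and DMSO controls.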
* marks the source's active call; other numbers are inactive results; ? = inconclusive; · = no result given; & = joins results of further samples; [ ] = dose if it differs, or a comment. Random draw from the library (roughly 2.1% active in at least one column).

SMILES	TRPML1 blocker	gsp antag	Menin MLL FP FL	gsp ag	TRPML1 agonist	ClpP mod
CC1=CC(=O)Nc2cncnc2N1	-7	-3%	·	-28%	-0.1	·
Cc1nn(C(=O)c2ccco2)c(C)c1Sc1ccccc1	-7	-12%	11	3%	1.1	-4.1%
COc1ccc(O)c(/C=c2/sc3nc4cc(C)c(C)cc4n3c2=O)c1	0	?	4.4	-34%[inhibitor]	0.9	-3.3%
Cc1ccccc1COC(=O)c1cc([N+](=O)[O-])ccc1N1CCOCC1	56	-6%	·	-2%	1.8	-0.6%
O=C(COc1ccc(Cl)cc1Cl)NCCN1CCCC1	16	·	·	-3%	-0.5	0.4%
CCCC1(C(=O)OCC)NC(c2ccc(N(C)C)cc2)C2C(=O)N(c3ccc(OCC)cc3)C(=O)C21 (stereo unspecified)	-11	7%	-1.1	0%	3.0	-12%
CC(C)NC(=O)C1(C)CCN1C(=O)C1(c2ccccc2)CCCC1 (stereo unspecified)	12	·	·	·	-0.4	0.4%
OCC[C@@H]1C[C@@H](O)[C@H](O)[C@]2(Cc3ccccc3CO2)O1	-15	6%	1.4	3%	-0.7	1.4%
N#CC1(NC(=O)COC(=O)c2cccc(-n3cnnn3)c2)CCCCC1	2	9%	·	-2%	0.0	-0.3%
CCNC(=S)NNC(=O)c1ccc(OC)cc1	-10	5%	1.5	-41%[inhibitor]	0.2	·
CCCOc1ccc(CSC(CC(=O)O)C(=O)O)cc1 (stereo unspecified)	10	3%	-1.7	0%	-0.8	-1.9%
CCC(=O)Nc1ccccc1C(=O)OCC(=O)c1cccc2ccccc12	19	-22%	3.6	-1%	5.8	-1.6%
Cc1ccc(C(=O)NNC(=O)c2cccs2)cc1	-16	0%	-1.5	0%	0.0	·
CSc1nnc(C)c(=O)n1COC(=O)c1ccc(S(=O)(=O)N2CCOCC2)cc1	-4	-16%	-0.3	-17%	0.6	-0.8%
Fc1ccc(-c2n[nH]c(=S)c3ccccc23)cc1	16	5%	-2.2	25%	0.0	0.1%
COc1ccccc1N1CCN(CC(=O)Nc2ccccc2C(=O)NCCc2ccccc2)CC1	8	2%	·	-39%[inhibitor]	2.3	-3.2%
Cc1ccc(N(CC(=O)NC2CCCCC2)C(=O)CCCC(=O)Nc2ccccn2)cc1	2	1%	-2.4	7%	-0.7	·
O=C(CCN1C(=O)c2ccccc2S1(=O)=O)Nc1cc(Cl)ccc1Cl	16	3%	·	0%	0.7	-7.6%
CCc1cccc(C)c1NC(=O)c1ccc(CN2CCc3ccccc3C2)cc1	8	-25%	1.7	-10%[15.4 µM]	0.3	1.8%
COc1cc(OC)c(C2=NOC(C(=O)N3CCCc4ccccc43)C2)cc1Cl (stereo unspecified)	17	-26%	-1.8	-2%	1.5	-2.1%
CCS(=O)(=O)N1CCN(C(=O)COc2ccc(-c3ccccc3)cc2)CC1	-13	-3%	4.1	?	0.0	-0.1%
COc1ccccc1/C=C/CN1CCSCC1	6	-14%	-6.0	9%[15.4 µM]	-0.5	0.1%
CNC(=O)c1ccc2nc(CCc3ccccc3)oc2c1	5	·	·	·	1.2	-0.4%
COc1ccc(C2=C(C)C(N3CCC(C(=O)NCc4ccco4)CC3)=NS2(=O)=O)cc1	-2	·	·	·	2.6	-1.5%
O=c1ccc2cc(S(=O)(=O)Nc3ccccc3F)ccc2o1	5	-6%	-1.6	12%	0.4	·
CCCn1nnc(NC(=O)Cc2ccc(Cl)cc2)n1	11	0%	-1.8	4%	1.1	0.1%
Cc1ccccc1C(=O)c1cccn1CC(=O)NCCCN1CC(C)CC(C)C1 (stereo unspecified)	0	21%	3.0	?	-0.4	-0.9%
O=c1cc(O)nc(SCc2ccccc2)n1-c1ccccc1	-13&33	?	-4.5&3.8	2%&-27%	0.9&-0.4	-1.2%&0.8%
CC(NS(=O)(=O)c1ccc2c(c1)oc(=O)n2C)c1ccccc1 (stereo unspecified)	13	0%	·	6%	3.0	-0.8%
Cc1ccc(NC(=O)CN2CCN(C(=O)C3CC3)CC2)c(F)c1	-2	·	·	3%	-0.1	-1.7%
CCOC(=O)c1nn(-c2ccc3ccccc3c2)cc1O	-16	-7%	0.0	15%	0.5	·
Cc1ccc(C(=O)OCCOc2cccc(Cl)c2)cc1S(=O)(=O)N1CCOCC1	36	-6%	·	22%[15.4 µM]	8.5	·
Cc1ccc(C(=O)COC(=O)c2n[nH]c(=O)c3ccccc23)cc1	-15	-3%	4.3	-7%	0.5	-10%
CCN1CCN(c2ccc(NC(=O)c3ccc(OC)c(S(=O)(=O)N4CCCC4)c3)cc2)CC1	16	-1%	·	-4%	-0.3	-1.0%
O=C(COC(=O)c1ccccc1Cl)Nc1cccc(S(=O)(=O)N2CCCCC2)c1	-2	·	·	-62%[inhibitor]	1.1	-1.3%
Cc1ccc(CNc2cc(C(=O)O)ccc2C)s1	9	-4%	0.5	-13%	0.3	·
O=C1NC(Cc2c[nH]c3ccccc23)C(=O)N1CCOc1ccc(F)cc1 (stereo unspecified)	-3	-15%	1.3	0%	0.0	-4.3%
Cc1ccn2cc(CNS(=O)(=O)c3ccc4c(c3)OCCO4)nc2c1	0	3%	3.5	-4%	-0.2	-8.1%
O=C(COC(=O)[C@@H]1CCCN1S(=O)(=O)c1ccccc1F)NCc1ccc2c(c1)OCO2	-3	-1%	·	0%	-0.3	-1.7%
Cc1ccc(NC(=O)c2nc(S(C)(=O)=O)ncc2N(Cc2ccco2)Cc2ccco2)cc1C	7	·	·	·	0.5	-5.2%

Whole records from above. Order of screens: TRPML1 blocker	gsp antag	Menin MLL FP FL	gsp ag	TRPML1 agonist	ClpP mod
Profile of CCNC(=S)NNC(=O)c1ccc(OC)cc1 = -10	5%	1.5	-41%[inhibitor]	0.2	·
Profile of Cc1ccc(N(CC(=O)NC2CCCCC2)C(=O)CCCC(=O)Nc2ccccn2)cc1 = 2	1%	-2.4	7%	-0.7	·

Following part.
SMILES	TRPML1 blocker	gsp antag	Menin MLL FP FL	gsp ag	TRPML1 agonist	ClpP mod
COc1ccc(NS(=O)(=O)c2c(C)n(C)c(=O)n(C)c2=O)cc1OC	-9	5%	1.0	-49%[inhibitor]	-0.3	-1.4%
COc1ccc(CC(=O)Nc2ccc(S(=O)(=O)N3CCCC3)cc2)c(OC)c1	2	-6%	·	-3%	0.8	-1.0%
Cn1c(=O)[nH]c(=O)c2c1nc(Br)n2CCCO	6	11%	1.0	19%	-0.1	-1.1%
CCN(CC)S(=O)(=O)c1ccc(N2CCOCC2)c(NC(=O)c2ccc(C#N)cc2)c1	3	3%	2.6	?	-0.1	-3.6%
O=C(C#Cc1ccccc1)Nc1ccccc1F	22	-14%	-1.1	-3%	0.4	-1.8%
Cn1cccc1C(=O)OCC(=O)NC(=O)c1ccc(Cl)cc1	-18	1%	·	0%[15.4 µM]	-0.2	-2.2%
CCOC(=O)c1cnn(-c2cc(Oc3ccccc3C)ncn2)c1N	-9	-16%	2.8	3%	-0.1	-3.2%
COc1cccc(Nc2sc(C(=O)c3ccc(Cl)cc3)c(N)c2C(=O)NCCc2ccc(OC)c(OC)c2)c1	-9	·	·	·	0.0	-0.3%
Cc1cc(NC(=O)CCN2CCC(C(N)=O)CC2)ccc1Br	9	2%	-0.7	-42%[inhibitor]	0.2	-0.3%
CC1Oc2ccccc2N(CC(=O)Nc2ccc3c(c2)OCO3)C1=O (stereo unspecified)	-17	1%	-0.7	-47%[inhibitor]	2.5	-0.6%
CCN(CC(=O)Nc1ccc(NC(C)=O)cc1)C(=O)c1oc2ccccc2c1C	-6	5%	·	-70%[inhibitor]	-0.2	-3.3%
CCOc1ccc(C(=O)CCC(=O)NC(CC(C)C)C(=O)OC)cc1 (stereo unspecified)	5	-3%	2.3	13%[15.4 µM]	0.9	·
Oc1ccc(/C=C/c2ccnc3ccccc23)cc1	3	-21%	8.9	-4%[15.4 µM]	-1.1	-16%
COc1ccc2c(=O)c(N3C(=O)c4ccccc4C3=O)coc2c1	6	0%	1.8	-1%	0.6	11%
CC(C)Cn1c(N)c(C(=O)COC(=O)C2=COCCO2)c(=O)n(C)c1=O	-16	6%	1.8	2%	-0.2	-1.3%
Cc1c(Cl)cccc1-n1c(SCC(=O)NCc2ccccc2)nc2n[nH]c(C)c2c1=N	21	·	·	·	1.9	47%
COc1ccc(-c2cc(-c3nnc(COC(=O)c4ccc(O)cc4)o3)c3ccccc3n2)cc1OC	1	?	7.3	28%	-0.5	·
Cc1cc(-c2nn(-c3ccccc3F)cc2CNCCc2cnc[nH]2)c(C)s1	-9	4%	-0.2	5%	0.5	-2.9%
COc1ccc(C(=O)Oc2ccc[nH]c2=O)cc1	5	2%	-1.0	5%	-0.2	-2.3%
CCOc1cc(C2C(C(=O)OC)=C(C)NC3=C2C(=O)c2ccccc23)ccc1OC (stereo unspecified)	-7	·	·	·	0.2	-0.1%
COC(=O)CC1C(=O)NCCN1C(=O)c1ccc2oc(C(C)C)nc2c1 (stereo unspecified)	1	16%	1.8	12%	-0.1	1.0%
CCOC(=O)C1=C(O)/C(=C/c2cccc(OC)c2O)N=C1C	0	-21%	16	-52%[inhibitor]	-0.1	·
COc1ccc(NS(=O)(=O)c2cc(N/C(=N\S(=O)(=O)c3ccccc3)c3ccc(F)cc3)ccc2Cl)cc1	36	-3%	1.6	2%	2.5	-1.0%
COC(=O)c1ccc(NC(=O)CSCc2ccccc2)cc1	-5	-1%	-2.2	-1%	-0.8	-1.9%
O=C(NC(=S)Nc1cccc(O)c1)C1CCCCC1	-21	-7%	·	-46%[inhibitor]	2.3	-3.3%
CCCc1nnc(SCC(=O)Nc2ccc(OC)cc2)o1	4	3%	1.7	17%	-0.2	·
C=CCN1C(=O)/C(=C\c2cccc(OC(=O)c3ccco3)c2)SC1=S	0	5%	13	9%	0.0	·
CCN1C(=O)[C@H]2[C@@H](c3ccc(C)cc3)N3C(=O)N(c4cccc(Cl)c4)C(=O)[C@@]3(Cc3ccc(Cl)cc3)[C@H]2C1=O	28	2%	·	4%	-0.2	-1.5%
CCOC(=O)COc1ccc(Br)cc1/C=C/c1[nH]c(=O)[nH]c(=O)c1[N+](=O)[O-]	-12	-21%	-0.9	-16%	1.2	·
CC(NC(=O)C(=O)Nc1nccs1)c1ccccc1 (stereo unspecified)	0	-20%	-0.4	5%[15.4 µM]	-0.5	-4.0%
O=C(c1cn(-c2ccccc2)nc1-c1cccs1)N1CCN(c2ccccc2)CC1	-9	1%	-1.7	-32%[inhibitor]	0.6	?
CCCCNC(=S)N/N=C/c1ccc(C)s1	15	5%	-0.2	-30%[inhibitor]	2.0	-1.1%
CCC(C(=O)NC1CCCC1)N(C(=O)Cn1nnc(-c2ccc(C)o2)n1)c1ccccc1OC (stereo unspecified)	-1	-8%	6.7	7%[15.4 µM]	2.0	·

Screening results from PubChem BioAssay.
